Bioassay records deposited in PubChem BioAssay by National Center for Advancing Translational Sciences (NCATS).
TRPML1 blocker: blocks the human TRPML1 channel; 390,000 tested, 0.02% active; activity change, negative = inhibition, % (no concentration beside the values); Q9GZU1; TRPML1-inducible cells, Ca2+ dye fluorescence, FDSS; stronger effect = lower value; inhibition of EC80 agonist-evoked calcium signal; in the data active means activity change below about -50%; inconclusive means about -30% to -50%; inactive means above about -30%;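 further: stimulus is agonist 54-4 at its EC80 concentration; on the % scale 0 is the no-effect control and ±100 the full control effect; compound concentration not given in the record; the text of the record puts the active cut at -80%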
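Tet-induced TRPML1-DL cells loaded with Ca8 no-wash calcium dye were read kinetically on FDSS. Compound addition was followed by EC80 agonist 54-4 (4 uM final); inhibition was read over 110 s.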
ClpP mod: qHTS Assay for Activators of ClpP; ATP-dependent Clp protease proteolytic subunit (Bacillus subtilis (strain 168)), P80244; purified B. subtilis ClpP, FRET peptide cleavage, 20 min; Potency, µM (highest dose often 57.5 µM), without a hit: at the highest dose activity change, negative = active; 340,000 tested, 1.9% active; AID 651965, 2013; active = well fitted falling curve with a large enough effect; inconclusive = small, poorly fitted or top-dose-only effect; inactive = no such curve, though single readings can be large or run the other way; further: potency means the concentration at half of the fitted maximal effect; the source files actives as falling curves though it sought activators and does not explain the sign; nearly all actives have a fitted effect of over 65% in size; many hits overshoot -100%
Target sequence (P80244 whole entry, looked up): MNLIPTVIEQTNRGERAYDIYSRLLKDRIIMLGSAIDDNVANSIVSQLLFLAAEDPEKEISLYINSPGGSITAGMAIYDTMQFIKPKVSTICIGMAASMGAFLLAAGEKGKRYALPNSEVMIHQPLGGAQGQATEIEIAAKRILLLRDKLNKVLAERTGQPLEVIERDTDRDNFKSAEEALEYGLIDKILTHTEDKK
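ClpP 10 microg/mL final, pH 8 Tris/KCl buffer with BSA, glycerol, Tween-20; compound pinned in; FRET-FV substrate; RT 20 min; Ex320/Em430; ΔFRET vs ADEP 5.8 microM, DMSO, no enzyme.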
Menin MLL FP FL: inhibitors of human menin-MLL interaction, wild-type MLL peptide; Fluorescence polarization, fluorescein-MLL peptide displacement from menin; FP activity change, % at 61.4 µM; 290,000 tested, under 10 active; inconclusive = falling polarisation curve, or a change in total fluorescence; inactive = total fluorescence flat and polarisation flat or rising; no compound was filed as active; the % refers to the polarisation; negative = inhibition;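 further: % of control where 0% means no effect; inhibitors lower the polarisation; unlabelled MLL peptide was the positive control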
gsp antagonist: gsp mutant antagonism; gsp-mutant cells, cAMP HTRF, 30 min; control for the full effect not named in the record; Potency, µM (top dose mostly 76.9 µM), for inactives: at the top dose activity change, negative = inhibition, hits mostly inhibitors; 340,000 tested, 0.4% active; AID 624288; active = falling curve of any shape with a large fitted effect; inconclusive = falling curve, mostly with a smaller effect; inactive = flat or rising curve; cell line not stated here;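 further: intracellular cAMP measured with PDE inhibitor Ro 20-1724 present during compound exposure; potency means the concentration at half of the fitted maximal effect; on the % scale 0 is the no-effect control and ±100 the full control effect; nearly all actives have a fitted effect of over 65% in size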
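Measurement of cellular cAMP by homogeneous time-resolved fluorescence following a 30 min compound exposure at 37C. The PDE inhibitor […] was present throughout; the assay buffer was DPBS with 0.05% BSA and 0.005% Tween 20.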
gsp agonist: agonists of gsp mutant (McCune-Albright syndrome). gsp mutant cells, cAMP HTRF, 30 min; control for the full effect not named in the record. Potency, µM (top dose mostly 76.9 µM), without a hit: top-dose activation (cAMP increase), usual class: activators. 340,000 tested, 0.13% active; active = well fitted activation curve with a large enough effect; inconclusive = small, poorly fitted or top-dose-only effect, or another doubt; inactive = no such curve, though single readings can be large or run the other way; cell line not stated here;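 further: phosphodiesterase inhibitor Ro 20-1724 added with compounds to block cAMP breakdown; potency means the concentration at half of the fitted maximal effect; nearly all actives have a fitted effect of over 60% in size; about a fifth of the inactives were tested at one dose only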
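Cells in DMEM/10% FBS with G418 were pretreated with compounds in DMSO plus […] (300 uM stock) for 30 min at 37C. cAMP was measured by HTRF (cAMP-d2 plus anti-cAMP antibody-K) after 30 min at room temperature.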
TRPV1 potentiator: potentiators of human vanilloid receptor 1 (TRPV1). Q8NER1. TRPV1-expressing cells, Fluo-8 calcium influx, capsaicin EC20 potentiation; host cell line not named in the record; control for the full effect not named in the record. potentiation, % at 8.33 µM. 320,000 tested, 0.02% active; active means potentiation above 80%; inconclusive means 30% to 80%; inactive means below 30%; further: 0% is about no effect
Target sequence (Q8NER1 whole entry, looked up): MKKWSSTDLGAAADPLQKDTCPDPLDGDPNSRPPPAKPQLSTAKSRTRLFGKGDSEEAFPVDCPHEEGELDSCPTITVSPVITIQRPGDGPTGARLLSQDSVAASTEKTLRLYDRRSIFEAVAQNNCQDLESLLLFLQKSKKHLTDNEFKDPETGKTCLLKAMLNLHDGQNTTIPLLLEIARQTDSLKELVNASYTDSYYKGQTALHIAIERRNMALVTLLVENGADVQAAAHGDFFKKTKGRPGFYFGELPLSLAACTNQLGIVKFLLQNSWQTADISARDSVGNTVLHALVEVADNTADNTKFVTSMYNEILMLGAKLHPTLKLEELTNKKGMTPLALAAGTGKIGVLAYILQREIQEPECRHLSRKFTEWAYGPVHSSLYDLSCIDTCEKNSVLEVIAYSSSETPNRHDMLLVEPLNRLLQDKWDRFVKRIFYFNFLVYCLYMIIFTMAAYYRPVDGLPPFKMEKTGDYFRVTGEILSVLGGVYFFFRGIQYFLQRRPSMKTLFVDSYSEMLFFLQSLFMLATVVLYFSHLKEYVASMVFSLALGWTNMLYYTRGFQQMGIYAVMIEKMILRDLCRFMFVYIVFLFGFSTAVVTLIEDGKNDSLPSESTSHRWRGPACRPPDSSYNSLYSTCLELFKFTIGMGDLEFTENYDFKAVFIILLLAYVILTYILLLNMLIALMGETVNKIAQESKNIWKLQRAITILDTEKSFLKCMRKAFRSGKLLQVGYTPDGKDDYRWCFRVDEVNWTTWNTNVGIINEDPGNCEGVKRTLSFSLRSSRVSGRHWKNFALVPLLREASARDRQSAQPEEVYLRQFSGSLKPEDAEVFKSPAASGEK
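TRPV1-expressing cells were cultured overnight at 35.5C and loaded with Fluo-8 calcium dye for 40 to 90 min at room temperature. After a 10 s baseline, compound was added and calcium influx was read kinetically for 3 min (ex 480/em 520 nm).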
Sfp inh: blocks B. subtilis Sfp PPTase activity; Q9F4F7; Biochemical Sfp PPTase activity, qHTS; Potency, µM, for the others: max response, negative = inhibition, usual class: inhibitors; 310,000 tested, 3.5% active; AID 1490; active means well fitted inhibition curve with a large enough effect; inconclusive means small, poorly fitted or top-dose-only effect, or another doubt; inactive means no such curve, though single readings can be large or run the other way;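 further: the enzyme is Sfp with the accession as filed and its product quenches rhodamine fluorescence; potency means the concentration at half of the fitted maximal effect; 0% = enzyme reaction without inhibitor and -100% = no enzyme wells; top concentration of the series not given in the record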
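Fluorescence-quenching assay with 15 nM Sfp, 5 uM rhodamine-CoA and 12.5 uM BHQ-2-labelled ybbR peptide in pH 7.6 Hepes/MgCl2 buffer. Enzyme was pre-incubated with compound for 15 min at room temperature. Rate was taken from the 30-min fluorescence change (525/598 nm).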
Numbers without * were called inactive; u = inconclusive; x = no result given; & = joins results of further samples; [ ] = another dose, or the depositor's remark.

SMILES	TRPML1 blocker	ClpP mod	Menin MLL FP FL	gsp antagonist	gsp agonist	TRPV1 potentiator	Sfp inh
CCN1C(=NCCc2c[nH]c3ccccc23)N[C@@H](c2ccccc2)[C@H](C(=O)OC)[C@H]1C	-12.3	-4.9%	-1.2&1.4	-4.4%	x	u	-3.4%&-3.1%
O=C(CN1CCCCCC1)Nc1ccc(Br)cc1[N+](=O)[O-]	6.1	1.1%	-2.5	8.2%	-15.2%[15.4 µM]	-3.1	-3.5%
COc1ccc(-c2cc(C(F)(F)F)nc(S(=O)(=O)CCC(=O)N3CCOCC3)n2)cc1	1.1	-8.3%	0.1	10.9%	40.7%	-7.5	8.2%
COc1ccc(C(=O)NNC(=S)NC(=O)c2cccc([N+](=O)[O-])c2)cc1	23.1	x	x	-8.6%	35.7%	x	x
COc1ccc(/C=C/C(=O)OCC(=O)NCCCc2ccccc2)cc1OC	-7.3	-23.5%	x	5.9%	-9.0%	x	x
COc1cc(C(=O)NCCCN2CCCC2=O)cc(OC)c1OC	-6.0	0.6%	-1.8	7.7%	8.3%	-1.5	17.5%
CCc1ccc(-c2csc3nc[nH]c(=O)c23)cc1	20.2	0.1%	2.0	-16.1%	3.1%[15.4 µM]	-0.8	11.3%
CN(C)CCCN1CC(=O)N2[C@@H](Cc3c([nH]c4ccccc34)C2(C)C)C1=O	27.7	-4.0%	-7.5	8.3%	u	-5.0	10.1%
O=C(CN(Cc1ccc(F)cc1)S(=O)(=O)c1ccc(S(=O)(=O)N2CCOCC2)cc1)Nc1ccccc1	-15.2	u	9.0	2.8%	-3.9%[15.4 µM]	-2.9	7.9%
CC(O)C(NC(=O)OCc1ccccc1)C(=O)OCc1ccccc1 (centres undefined)	17.3	-3.5%	x	4.6%	3.5%	-23.4	x
C=CCNC(=O)c1sccc1Oc1ccc(F)cc1[N+](=O)[O-]	8.1	x	1.2	-12.9%	-5.3%[15.4 µM]	-9.4	-8.1%
CCOc1ccccc1NC(=O)N1CCC(n2nnc3cc(C)ccc32)CC1	0.2	-1.8%	2.2	-12.8%	-31.6%	-6.1	10.2%
O=C(c1cccc2nc3ccccc3nc12)N1CCOCC1	-4.3	19.7%	6.0	9.4%	7.8%[15.4 µM]	22.8	13.4%
Cc1c(-c2cccs2)[n+](=O)c2c(n1[O-])CCCCC2	13.0	-0.5%	1.9	-6.3%	6.2%	9.0	18.4%
Oc1ccc(-c2nccc(-c3ccc(Cl)cc3)n2)cc1	-5.6	x	-6.4	-12.3%	-16.3%[15.4 µM]	-6.7	-17.5%
CCCCNC(=S)NNc1c(Cl)cc(Cl)cc1Cl	18.2	1.8%	-2.5	-3.3%	8.3%[15.4 µM]	-1.4	-23.0%
O=C(C[C@H]1C(=O)N(CCc2ccccc2)C[C@@H]1c1ccccc1)Nc1ccccc1	-8.8	0.6%	x	x	-38.4%[inhibitor]	x	x
COc1cc(C(C)=O)ccc1OCC(O)CN1CCN(c2ccc(F)cc2)CC1 (centres undefined)	0.6	x	-1.8	-4.4%	-54.1%[inhibitor]	-2.7	22.3%
CCc1ccc(N2C(=O)CN(Cc3cc(OC)c(OC)c(OC)c3)C2=S)cc1	5.9	-2.6%	-0.6	u	0.0%	-28.6	-4.3%
Cn1c(=O)cc(OCCCC(=O)NCCCN2CCN(Cc3ccccc3)CC2)c2ccccc21	30.5	-9.4%	11.3	9.6%	-18.9%	7.7	-1.9%
NC(=O)c1nsc(C(=O)N(Cc2cccnc2)C(C(=O)NC2CCCC2)c2ccc(F)cc2)c1N (centres undefined)	12.1	x	0.0	-46.5%	9.2%[15.4 µM]	15.5	24.0%
Cc1c(NC(=O)CN2c3cccc4cccc(c34)S2(=O)=O)c(=O)n(-c2ccccc2)n1C	-16.3	-15.7%	1.4	-10.2%	22.2%	18.0	11.2%
O=[N+]([O-])c1ccc2cn[nH]c2c1	-2.6	-0.8%	0.2&-12.9	-5.5%	x	3.5	-12.6%&7.3%
C=CCn1c(CCC(=O)Nc2ccc(C)c(Cl)c2)nnc1SCC(=O)Nc1ccccc1C	-3.6	-0.9%	6.0	-25.0%	-39.5%	7.0	8.4%
CCCc1cc(=O)n2[nH]c(NCc3cccs3)nc2n1	-3.2	0.4%	0.6	-3.0%	0.2%	2.2	12.1%
COc1ccccc1N1CCN(C(=O)C(C)NC(=O)c2ccco2)CC1 (centres undefined)	-2.7	2.1%	x	10.4%	-25.4%	-6.1	x
CCOc1ccc(CC(=O)C2=C(N3CCOCC3)CC(C)(C)CC2=O)cc1OCC	7.4	x	1.9	5.0%	4.2%[15.4 µM]	11.2	-2.3%
S=C1SCN(Cc2cccnc2)CN1Cc1ccccc1	13.0	x	1.5	5.5%	-5.8%[15.4 µM]	10.3	-19.9%
CN(c1cccc(NC(=O)c2ccc(C(C)(C)C)cc2)c1)S(C)(=O)=O	-9.4	x	-1.2	-22.5%	u	1.0	3.4%
COc1ccccc1CNC(=O)N/C=C/c1ccc(Cl)cc1	9.0	x	3.4	-7.4%	5.4%[15.4 µM]	2.8	14.9%

4 records picked at random from the list so far:
SMILES	TRPML1 blocker	ClpP mod	Menin MLL FP FL	gsp antagonist	gsp agonist	TRPV1 potentiator	Sfp inh
NC(=O)c1nsc(C(=O)N(Cc2cccnc2)C(C(=O)NC2CCCC2)c2ccc(F)cc2)c1N (centres undefined)	12.1	x	0.0	-46.5%	9.2%[15.4 µM]	15.5	24.0%
Cn1c(=O)cc(OCCCC(=O)NCCCN2CCN(Cc3ccccc3)CC2)c2ccccc21	30.5	-9.4%	11.3	9.6%	-18.9%	7.7	-1.9%
COc1cc(C(=O)NCCCN2CCCC2=O)cc(OC)c1OC	-6.0	0.6%	-1.8	7.7%	8.3%	-1.5	17.5%
Oc1ccc(-c2nccc(-c3ccc(Cl)cc3)n2)cc1	-5.6	x	-6.4	-12.3%	-16.3%[15.4 µM]	-6.7	-17.5%

Next part
SMILES	TRPML1 blocker	ClpP mod	Menin MLL FP FL	gsp antagonist	gsp agonist	TRPV1 potentiator	Sfp inh
C[C@H](NC(=O)NCc1ccc(F)cc1)C(=O)O	-3.2	-1.9%	-0.4	13.9%	-12.3%	-1.6	22.5%
C=CCN1C(=O)C(Cc2ccccc2Cl)SC1=Nc1ccc(C(=O)O)cc1 (centres undefined)	x	-0.7%	-2.7	-3.5%	0.0%	-0.4	16.3%
Cc1ccc(C(=O)NC(=S)Nc2ccccc2C(F)(F)F)cc1C	-9.7	0.0%	-0.3	2.4%	5.9%	-2.3	-12.7%
CN1C(=O)/C(=N/OC(=O)c2ccccc2Br)c2ccccc21	0.7	-2.3%	1.6	10.2%	0.5%	-1.8	-15.0%
COc1ccc(-n2c(CCc3ccccc3)nnc2SCC(=O)NCc2ccccc2)cc1	-4.9	-0.1%	3.0	-23.1%	-32.8%[inhibitor]	12.2	17.7%
CC(=O)CC(=O)Nc1ccc(C(N)=O)cc1	12.0	x	1.2	5.7%	6.4%[15.4 µM]	-1.4	-5.3%
Cn1cc(CN2CCCC(C(=O)Nc3ccc(-c4cccc(F)c4)cc3)C2)cn1 (centres undefined)	2.7	0.4%	x	0.7%	-17.1%	-3.2	-5.6%
CCC(CC)n1[nH]c(=O)cc1N	5.2	-1.4%	0.1	0.1%[15.4 µM]	u	9.8	6.4%
COc1ccc(OCC(=O)NNC(=O)c2cccs2)cc1	12.7	-0.3%	-3.2	4.0%	-7.1%	4.0	14.1%
Cc1cc(C(=O)Nc2c(C)n(C)n(-c3ccccc3)c2=O)c2ccccc2n1	-0.8	0.6%	-1.5	-4.3%	0.0%	10.2	16.3%

One compound at a time (already shown). Values in the order: TRPML1 blocker	ClpP mod	Menin MLL FP FL	gsp antagonist	gsp agonist	TRPV1 potentiator	Sfp inh
`COc1ccc(-n2c(CCc3ccccc3)nnc2SCC(=O)NCc2ccccc2)cc1` is listed with -4.9	-0.1%	3.0	-23.1%	-32.8%[inhibitor]	12.2	17.7%
`COc1ccc(OCC(=O)NNC(=O)c2cccs2)cc1` is listed with 12.7	-0.3%	-3.2	4.0%	-7.1%	4.0	14.1%

Remaining list, next part
SMILES	TRPML1 blocker	ClpP mod	Menin MLL FP FL	gsp antagonist	gsp agonist	TRPV1 potentiator	Sfp inh
CCOc1ccc(C(=O)NC2CC(C)(C)NC(C)(C)C2)cc1	-18.4	0.6%	7.8	8.4%	3.8%	4.9	12.2%
CC(C)(O)C#Cc1ccc(C(=O)NCc2ccccc2)s1	10.2	-3.7%	x	-0.3%	u	x	x
Cc1cc(=O)n2cccc(O)c2n1	-10.1	x	-6.7	7.4%	-0.7%[15.4 µM]	4.2	56.2µM*
CCCCNC(=S)N(C)N=C1CCC(c2ccccc2)CC1 (centres undefined)	-15.0	0.7%	0.2	-6.9%	7.2%	-8.0	12.9%
Cn1c(=O)c2ncn(CC(=O)O)c2n(C)c1=O	-6.6	0.5%	2.9	13.9%	23.0%	0.9	12.4%
CN(c1ccc(OCC(=O)O)cc1)S(=O)(=O)c1ccc2ccccc2c1	24.1	-0.5%	-0.4	11.4%	8.3%	21.8	11.2%
CC(C)C(=O)NC(c1ccccc1)c1cc([N+](=O)[O-])c2cccnc2c1O (centres undefined)	-5.0	-0.7%	2.0	-11.3%	-51.7%[inhibitor]	16.3	-17.4%
COc1ccc(-n2nc3cc(C)c(NC(C)=O)cc3n2)cc1	1.9	x	-6.8	-5.3%	5.2%[15.4 µM]	-1.1	-12.4%
CCCCNc1nc(N)ncc1[N+](=O)[O-]	9.5	-0.5%	6.2	-10.2%	u	-0.8	15.9%
CC(=O)ON1C(C)(C)Cc2noc(N)c2C1(C)C	1.3	-2.4%	2.3	3.4%	19.6%	8.7	13.0%
